Compound activity as filed in PubChem BioAssay.
Bst PK mod: Pyruvate Kinase; Potency, µM; partly purified Bacillus stearothermophilus pyruvate kinase, luminescence ATP production; ribose 5-phosphate activator present at AC10; 1.2% of 51,000 active; in the data active means potency below about 11 µM; inconclusive means mostly about 12 µM to 25 µM; inactive means weaker than that;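 the screen sought inhibitors and activators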;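 note: potency is the fitted concentration of half-maximal effect; scaled between full activation by ribose 5 phosphate and full inhibition by luteolin; about four in five hits inhibit and the cells do not say which; series up to 57 µM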
YjeE inh: qHTS Assay for Inhibitors of YjeE. 0.05% of 71,000 active. purified YjeE, fluorescence polarisation of a bound ADP probe. AID 605, 2007. Potency, µM; active = well fitted falling curve; inconclusive = weaker or top-dose-only fall, or a rising curve; inactive = flat or poorly fitted curve;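 note: top concentration of the series not given in the record; excess ADP was the control for the full effect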
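Purified YjeE (10 uM) with BODIPY Texas Red-labeled ADP probe (2 uM); compounds pin-transferred, 15 min at room temperature. Binding inhibition read as decreased fluorescence polarization; ADP titration as control.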
Starred values were filed as active, the others as inactive.

Results for COCCNc1nc2c(c(=O)n(C)c(=O)n2C)n1Cc1cccc(C(F)(F)F)c1 ?
Bst PK mod: >26

What do the screens show for `OCc1nc2ccccc2n1CC(O)COc1ccccc1` (centres undefined)?
Bst PK mod: >57; YjeE inh: inactive

Results for O=C(CSc1nnc(CNc2ccc(F)cc2)n1Cc1ccco1)N1CCCC1 ?
Bst PK mod: >57; YjeE inh: inactive

What do the screens show for `CCC(c1nnnn1Cc1ccc2c(c1)OCO2)N1CCN(c2ccc(OC)cc2)CC1` (centres undefined)?
Bst PK mod: >57; YjeE inh: inactive

How did COc1ccc(C(=O)N2CCC[C@@]3(CCN(C(=O)NC(C)C)C3)C2)cc1 do in these assays?
YjeE inh: inactive

Results for O=C(Nc1nc(-c2ccccn2)cs1)C1COc2ccccc2O1 (centres undefined) ?
YjeE inh: inactive

What do the screens show for `O=C(NCc1ccccn1)c1cc(-c2ccccc2)on1`?
Bst PK mod: >57; YjeE inh: inactive

Results for Clc1ccc2oc(-c3ccccn3)nc2c1 ?
Bst PK mod: inconclusive; YjeE inh: inactive

Results for Cc1nc2ccccc2c2c1C(=O)N(C(C)C)C2=O ?
Bst PK mod: >57; YjeE inh: inactive

Results for CC(C)c1ccc(-c2nnn(Cc3nc4ccccc4s3)n2)cc1 ?
Bst PK mod: >57; YjeE inh: inactive

4 compounds drawn at random from the list so far:
What do the screens show for `OCc1nc2ccccc2n1CC(O)COc1ccccc1` (centres undefined)?
Bst PK mod: >57; YjeE inh: inactive

Results for O=C(CSc1nnc(CNc2ccc(F)cc2)n1Cc1ccco1)N1CCCC1 ?
Bst PK mod: >57; YjeE inh: inactive

Results for Clc1ccc2oc(-c3ccccn3)nc2c1 ?
Bst PK mod: inconclusive; YjeE inh: inactive

What do the screens show for `O=C(NCc1ccccn1)c1cc(-c2ccccc2)on1`?
Bst PK mod: >57; YjeE inh: inactive

Carrying on:
What do the screens show for `O=C(Nc1cccnc1)c1ccc(Oc2ccccc2)cc1`?
Bst PK mod: inactive; YjeE inh: inactive

What do the screens show for `CCc1nc(SC)[nH]c(=O)c1C`?
Bst PK mod: >57; YjeE inh: inactive

How did COC(=O)[C@@]1(Cc2ccc(OC)cc2)[C@H]2c3cc(C(=O)N(C)C)n(Cc4ccccn4)c3C[C@H]2CN1C(=O)c1ccccc1 do in these assays?
YjeE inh: inactive

Results for CCN(CC)c1ccc(/C=N/n2c(=S)[nH]nc(C)c2=O)cc1 ?
YjeE inh: inactive

How did CC1=C(C(=O)OCC2CCCO2)C(c2ccc(C)o2)C2=C(CC(c3ccc(N(C)C)cc3)CC2=O)N1 (centres undefined) do in these assays?
Bst PK mod: >57; YjeE inh: inactive

How did CSCc1nnc(NC(=O)c2ccc(S(=O)(=O)N(CC(C)C)CC(C)C)cc2)o1 do in these assays?
Bst PK mod: >57; YjeE inh: inactive

Results for CCn1cc(C(=O)NC2CCCCC2)c(=O)c2cc(S(=O)(=O)N(C)C)ccc21 ?
YjeE inh: inactive

What do the screens show for `CN(C)c1ccc(/C=C2/C(=O)Nc3ccccc32)cc1`?
YjeE inh: inactive

How did CN(C)S(=O)(=O)c1cccc(C(=O)N2CCc3ccccc32)c1 do in these assays?
Bst PK mod: >57; YjeE inh: inactive

Results for COC(=O)C1=C(C)N(Cc2cccnc2)C(=O)C1 ?
YjeE inh: inactive

How did Cc1noc(C)c1CSc1ccccc1C(=O)N1CCN(c2ccccc2)CC1 do in these assays?
Bst PK mod: >57; YjeE inh: inactive

How did CC(=O)c1cc(-c2nc3ccccc3n2C)n(C)c1 do in these assays?
Bst PK mod: >57; YjeE inh: inactive

What do the screens show for `COc1ccc(N(C2CSC2)S(=O)(=O)c2ccccc2)cc1`?
Bst PK mod: >57; YjeE inh: inactive

What do the screens show for `COCCCNC(=O)CS(=O)(=O)Cc1nc(-c2ccccc2C)oc1C`?
YjeE inh: inactive

How did CCOC(=O)C1CCCN(C(=O)c2cn(CC)c3ccc(S(=O)(=O)N4CCCC4)cc3c2=O)C1 (centres undefined) do in these assays?
Bst PK mod: >57; YjeE inh: inactive

How did Cn1cccc1Cc1nnc(SCC(=O)Nc2ccc(F)cc2)n1-c1ccc(F)cc1 do in these assays?
YjeE inh: inactive

How did Cn1c(=O)n(CC(N)=O)c2ccccc21 do in these assays?
Bst PK mod: >57; YjeE inh: inactive

Results for COc1ccc(Nc2nc(C)c3ccccc3n2)cc1 ?
Bst PK mod: inconclusive; YjeE inh: inactive

How did Cc1ccc(OC(C)C(=O)N2CCc3ccccc32)cc1 (centres undefined) do in these assays?
Bst PK mod: >57; YjeE inh: inactive

How did O=C(O)[C@@H](c1ccccc1)N1Cc2ccccc2C1=O do in these assays?
YjeE inh: inactive

What do the screens show for `CC1(C)C(=O)C(c2ccccc2)=C2CN3C(=O)N(CCc4ccccc4)C(=O)C3(Cc3ccc(F)cc3)C=C21` (centres undefined)?
YjeE inh: inactive

Results for S=c1sc2c(N3CCOCC3)ncnc2n1-c1ccccc1 ?
YjeE inh: inactive

What do the screens show for `O=C(O)c1ccc(C2CCCCC2)cn1`?
Bst PK mod: >26

Results for COC(=O)Cn1c2ccc(OC)cc2c2nc3ccccc3nc21 ?
Bst PK mod: >57; YjeE inh: inactive

How did C=CCOC(=O)C1=C(C)NC(=O)NC1c1cn(-c2ccccc2)nc1-c1cccs1 (centres undefined) do in these assays?
Bst PK mod: >57; YjeE inh: inactive

What do the screens show for `CCN1CCCC1CNC(=O)C1CCN(Cc2nc(-c3cccc(Br)c3)oc2C)CC1` (centres undefined)?
Bst PK mod: >57; YjeE inh: inactive

Results for O=C(Nc1ccc2c(c1)OCO2)C1CCN(S(=O)(=O)c2ccc3c(c2)OCCO3)CC1 ?
Bst PK mod: >57; YjeE inh: inactive

What do the screens show for `CN(C)CCNC(=O)C12CC3(C)CC(C)(CC(C)(C3)C1)C2`?
Bst PK mod: >26

How did CN=c1scc(C)n1/N=C/c1ccc(O)cc1O do in these assays?
Bst PK mod: 1.1*; YjeE inh: inactive

How did CCCCOC(=O)C1=C(C)Nc2ncnn2C1c1cc(OC)ccc1OC (centres undefined) do in these assays?
Bst PK mod: >57; YjeE inh: inactive

What do the screens show for `COC(=O)c1ccc(CSc2nc(C(F)(F)F)c3c(c2C#N)CCC3)o1`?
Bst PK mod: >57; YjeE inh: inactive

How did CN(CCCNC(=O)c1cn(C)c2ccc(S(=O)(=O)N(C)C)cc2c1=O)c1ccccc1 do in these assays?
YjeE inh: inactive

How did COc1ccc(C2=NOC(C(=O)N3CCCCCC3)C2)cc1OC (centres undefined) do in these assays?
Bst PK mod: >57; YjeE inh: inactive

How did CC(=O)c1cccc(NC(=O)C2CCCC2)c1 do in these assays?
YjeE inh: inactive

Results for COc1ccc(CCn2c(C)cc(C(=O)CSc3nnc(N)s3)c2C)cc1 ?
Bst PK mod: >57; YjeE inh: inactive

What do the screens show for `O=C(Nc1ccc2c(c1)OCO2)C(c1ccc(Cl)cc1)N1CCN(C(=O)c2ccco2)CC1` (centres undefined)?
Bst PK mod: >57; YjeE inh: inactive

How did Cc1cc(Oc2ccccc2)nc2ccc(O)cc12 do in these assays?
YjeE inh: inactive

What do the screens show for `Cc1ccc(N(CC(=O)NCc2ccncc2)S(C)(=O)=O)cc1Cl`?
Bst PK mod: >57; YjeE inh: inactive

What do the screens show for `Cn1c(N2CCN(C(=O)C34CC5CC(CC(C5)C3)C4)CC2)nc2ccccc21`?
Bst PK mod: >57; YjeE inh: inactive

What do the screens show for `Cc1cccc(CNc2ncncc2-c2ccc(C(=O)N(C)C)cc2)c1`?
YjeE inh: inactive

How did CCOC(=O)C1CCN(S(=O)(=O)c2cccc(-c3cn4cccc(C)c4n3)c2)CC1 do in these assays?
Bst PK mod: >57; YjeE inh: inactive

Results for Nc1c(C(=O)NCCN2CCOCC2)c2nc3ccccc3nc2n1CCc1ccccc1F ?
Bst PK mod: >57; YjeE inh: inactive

Results for Cc1cc2cc(OCC(=O)O)ccc2n1C ?
Bst PK mod: >57; YjeE inh: inactive

Results for CCOc1c(Br)ccc2c1sc1nc[nH]c(=O)c12 ?
YjeE inh: inactive

Results for CCN1CCC(O)([C@H](C(=O)O)c2ccccc2)CC1 ?
YjeE inh: inactive

How did Cc1ccc(S(=O)(=O)NCCC(=O)N2CCCCC2)cc1 do in these assays?
Bst PK mod: >57; YjeE inh: inactive

Results for O=C(CSc1nccn1-c1ccccc1)NCc1ccc2c(c1)OCO2 ?
Bst PK mod: >57; YjeE inh: inactive

Results for CC1(C)CC(=O)C2=C(C1)NC(=O)CC2C(=O)NCc1ccc(F)cc1 (centres undefined) ?
Bst PK mod: >57; YjeE inh: inactive

Results for Cn1c(=O)c2c(nc(SCC(=O)N3CCCc4ccccc43)n2C)n(C)c1=O ?
Bst PK mod: >57; YjeE inh: inactive

Results for COC(=O)c1ccc2c(c1)N(C)CCS2 ?
YjeE inh: inactive

7 entries out of the list, ordered by heavy-atom count, smallest number first.
Results for Cc1cc2cc(OCC(=O)O)ccc2n1C ?
Bst PK mod: >57; YjeE inh: inactive

Results for CCOc1c(Br)ccc2c1sc1nc[nH]c(=O)c12 ?
YjeE inh: inactive

How did Cc1ccc(S(=O)(=O)NCCC(=O)N2CCCCC2)cc1 do in these assays?
Bst PK mod: >57; YjeE inh: inactive

Results for CC1(C)CC(=O)C2=C(C1)NC(=O)CC2C(=O)NCc1ccc(F)cc1 (centres undefined) ?
Bst PK mod: >57; YjeE inh: inactive

Results for Cn1c(=O)c2c(nc(SCC(=O)N3CCCc4ccccc43)n2C)n(C)c1=O ?
Bst PK mod: >57; YjeE inh: inactive

How did CCOC(=O)C1CCN(S(=O)(=O)c2cccc(-c3cn4cccc(C)c4n3)c2)CC1 do in these assays?
Bst PK mod: >57; YjeE inh: inactive

Results for Nc1c(C(=O)NCCN2CCOCC2)c2nc3ccccc3nc2n1CCc1ccccc1F ?
Bst PK mod: >57; YjeE inh: inactive

Carrying on:
How did C=CCn1c(=N)c(C(=O)NCCCOC)cc2c(=O)n3cccc(C)c3nc21 do in these assays?
YjeE inh: inactive

How did Cc1ccc(N2C(=O)[C@@H]3[C@H](C2=O)C2c4ccccc4C=CN2[C@@H]3C(=O)c2ccco2)c(C)c1 (some centres undefined) do in these assays?
Bst PK mod: >57; YjeE inh: inactive

What do the screens show for `O=C(O)c1ccccc1S(=O)(=O)NCC(O)COc1ccc(Br)cc1` (centres undefined)?
YjeE inh: inactive

How did S=C(Nc1ccc2cn[nH]c2c1)Nc1ccc2cn[nH]c2c1 do in these assays?
YjeE inh: inactive

Results for CCOC(=O)c1cc2c(ccn2C)n1CC(=O)N1CCN(c2ccc(F)cc2)CC1 ?
Bst PK mod: >57; YjeE inh: inactive

How did CC(=O)c1cccc(NC(=O)N2CCCC2C(=O)Nc2ccccc2C)c1 (centres undefined) do in these assays?
Bst PK mod: >57; YjeE inh: inactive

Results for CC(=O)OCC(=O)[C@@]1(O)[C@H](C)C[C@H]2[C@@H]3CCC4=CC(=O)C=C[C@]4(C)[C@@]3(F)[C@@H](O)C[C@@]21C ?
Bst PK mod: >26

How did CC(=O)c1cc2c(cc1NC(=O)CSc1nc3ccccc3o1)OCO2 do in these assays?
Bst PK mod: >57; YjeE inh: inactive

Results for C=CCN1C(=O)C(O)(CC(=O)c2ccc(OC)cc2OC)c2cc(Br)ccc21 (centres undefined) ?
Bst PK mod: >57; YjeE inh: inactive

What do the screens show for `O=C1N(c2ccccc2)C2CS(=O)(=O)CC2N1c1ccc(Br)cc1` (centres undefined)?
Bst PK mod: >57; YjeE inh: inactive

What do the screens show for `C=CCNc1nc2c3ccccc3n(C(C)=O)c2s1`?
Bst PK mod: inactive; YjeE inh: inactive

Results for O=C(NC1CCCCCC1)C1c2ccccc2C(=O)N1Cc1cccnc1 (centres undefined) ?
Bst PK mod: >57; YjeE inh: inactive

How did COC(=O)[C@@]1(Cc2ccc(OC)cc2)[C@H]2c3cc(C(=O)N(C)C)n(Cc4ccc(OC)c(OC)c4)c3C[C@H]2CN1C(=O)c1ccccc1 do in these assays?
YjeE inh: inactive

Results for COc1ccc(C(=O)Nc2ccccc2C(=O)NC(C(=O)NCc2ccco2)C(C)C)cc1 (centres undefined) ?
Bst PK mod: >57; YjeE inh: inactive

How did Cc1cccc(S(=O)(=O)C(C#N)c2nc3ccccc3nc2N2CCCC2)c1 (centres undefined) do in these assays?
Bst PK mod: >57; YjeE inh: inactive

What do the screens show for `COC(=O)c1[nH]c2ccccc2c1NC(=O)CCN1CCN(C2CCCCC2)CC1`?
Bst PK mod: >57; YjeE inh: inactive

Results for O=C(O)C1CC(=O)N(Cc2cccnc2)C1 (centres undefined) ?
Bst PK mod: >57; YjeE inh: inactive

Results for Cc1ccccc1-c1nc(CN2CCC(C(=O)NC3CCN(Cc4ccccc4)CC3)CC2)c(C)o1 ?
YjeE inh: inactive

How did CCCOc1ccc(OC(=O)c2ccc(Br)o2)cc1 do in these assays?
YjeE inh: inactive

Results for O=C(O)C1C2C=CC(C2)C1C(=O)NCCCN1CCOCC1 (centres undefined) ?
Bst PK mod: >57; YjeE inh: inactive

Results for COCCCNC(=O)CCCC(=O)NCCCOC ?
Bst PK mod: >57; YjeE inh: inactive

How did O=C(NCc1cn2ccccc2n1)c1ccc(Br)o1 do in these assays?
YjeE inh: inactive

How did O=C1CN(c2ccccc2F)C(=O)CN1c1ccccc1F do in these assays?
Bst PK mod: >57; YjeE inh: inactive

How did N#CCCn1c(=O)c(-c2cccs2)nc2cnc(N3CCOCC3)nc21 do in these assays?
YjeE inh: inactive

What do the screens show for `CCN1CCN(Cc2coc3ccc(C)cc3c2=O)CC1`?
YjeE inh: inactive

What do the screens show for `O=C(O)CCCc1ccccc1`?
Bst PK mod: >26

Results for O=S(=O)(c1cccc2nsnc12)N1CCc2ccccc2C1 ?
Bst PK mod: inactive; YjeE inh: inactive

These rows are one share of the data; count on the stated rates, not on these rows.
